MbtI inh = MbtI salicylate synthase inhibitors, primary screen, biochemical, fluorescence intensity. P9WFX0. purified MbtI enzyme, fluorescence intensity read-out. inhibition, %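 (about 17 µg/mL by stock and volumes)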. actives 0.89% (n = 100,000);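 active = above 50% in both replicates, above 80% if mildly self-fluorescent; inactive = the rest, strongly fluorescent compounds included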;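 note: 0% = mean of negative and 100% = mean of positive controls; one replicate is shown; some compounds called inactive have numbers as strong as hits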
Polio RdRp inh = poliovirus RdRp elongation inhibitors, primary screen, biochemical, fluorescence polarization, total intensity. poliovirus polymerase elongation; active compounds read low. % elongation, % (compound at 16.7 µg/mL). actives 0.66% (n = 150,000); in the data active = % elongation below about 90%; note: some results filed as inactive read as strong as hits
Target sequence (P03300 1749-2209 limits assumed): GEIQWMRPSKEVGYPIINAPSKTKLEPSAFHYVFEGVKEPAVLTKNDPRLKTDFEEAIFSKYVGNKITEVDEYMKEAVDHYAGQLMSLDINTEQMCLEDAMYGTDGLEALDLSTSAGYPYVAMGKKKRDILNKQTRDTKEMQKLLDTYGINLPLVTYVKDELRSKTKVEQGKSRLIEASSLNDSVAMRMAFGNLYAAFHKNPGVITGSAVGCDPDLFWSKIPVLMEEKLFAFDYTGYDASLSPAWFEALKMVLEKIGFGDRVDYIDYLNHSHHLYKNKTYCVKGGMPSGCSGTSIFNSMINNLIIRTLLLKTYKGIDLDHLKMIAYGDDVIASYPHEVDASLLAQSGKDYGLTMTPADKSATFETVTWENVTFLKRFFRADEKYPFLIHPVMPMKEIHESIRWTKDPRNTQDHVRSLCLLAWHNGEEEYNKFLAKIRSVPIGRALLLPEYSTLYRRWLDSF
Mtb MenB inh = M. tuberculosis MenB inhibitors, primary screen, biochemical, absorbance; MenB enzyme assay, absorbance read-out; some hits fall short of the stated cut; inhibition, %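 (about 12 µg/mL by stock and volumes)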; actives 0.43% (n = 100,000); AID 540299, 2011;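 active = mean of two replicates above 30%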;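 note: 0% = no compound and 100% = wells with inactive enzyme; the first replicate is given; strong numbers were not always called active; inactives centre near -10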
Target sequence (P9WNP5 whole entry, looked up): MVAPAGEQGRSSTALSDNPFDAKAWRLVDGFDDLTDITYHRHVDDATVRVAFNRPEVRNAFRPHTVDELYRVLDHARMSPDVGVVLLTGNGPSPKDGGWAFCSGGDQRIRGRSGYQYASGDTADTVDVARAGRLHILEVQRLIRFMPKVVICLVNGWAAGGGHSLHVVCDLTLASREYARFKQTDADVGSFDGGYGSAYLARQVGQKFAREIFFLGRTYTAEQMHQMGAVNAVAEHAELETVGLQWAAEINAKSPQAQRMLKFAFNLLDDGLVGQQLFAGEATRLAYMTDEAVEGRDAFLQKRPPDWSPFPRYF
Polio RdRp inh intensity = further read-out of Polio RdRp inh, marked with its call; % elongation; measured here: total intensity read-out; formula for this scale not given here;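 total fluorescence in place of polarization; lower means less elongation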
Numbers without * were called inactive; . = not tested or not shown.

entry	molecule	MbtI inh	Polio RdRp inh	Polio RdRp inh intensity	Mtb MenB inh
1	CC(C)c1ccc(OCc2nnc(SCC(=O)NC3CCCCC3C)o2)cc1 (configuration not stated)	-7	103	101	-28
2	CC(O)c1ccc(Oc2ccc(C(C)O)cc2)cc1 (configuration not stated)	9	102	91	-30
3	Cc1cccc(NS(=O)(=O)c2ccc(C)c(C(=O)NN3CCN(C)CC3)c2)c1	8	102	100	8
4	CC1CN(c2nc3ccccc3nc2SCC(=O)Nc2ccc(F)cc2)CC(C)O1 (configuration not stated)	12	100	99	7
5	O=C(O)c1cc(S(=O)(=O)NCC2COc3ccccc3O2)ccc1Cl (configuration not stated)	8	99	107	-7
6	OC1C2CCN(c3ccccc32)C1Cc1ccccc1 (configuration not stated)	-12	101	107	10
7	c1ccc(-c2nc(CSc3nncn3-c3ccccc3)cs2)cc1	5	102	102	-12
8	CCn1nc(CC(=O)O)c2ccccc2c1=O	19	103	97	-39

Reformatted with each value named: part of the list above
1	CC(C)c1ccc(OCc2nnc(SCC(=O)NC3CCCCC3C)o2)cc1 (configuration not stated)
  MbtI inh: -7
  Polio RdRp inh: 103
  Polio RdRp inh intensity: 101
  Mtb MenB inh: -28

4	CC1CN(c2nc3ccccc3nc2SCC(=O)Nc2ccc(F)cc2)CC(C)O1 (configuration not stated)
  MbtI inh: 12
  Polio RdRp inh: 100
  Polio RdRp inh intensity: 99
  Mtb MenB inh: 7

5	O=C(O)c1cc(S(=O)(=O)NCC2COc3ccccc3O2)ccc1Cl (configuration not stated)
  MbtI inh: 8
  Polio RdRp inh: 99
  Polio RdRp inh intensity: 107
  Mtb MenB inh: -7

3	Cc1cccc(NS(=O)(=O)c2ccc(C)c(C(=O)NN3CCN(C)CC3)c2)c1
  MbtI inh: 8
  Polio RdRp inh: 102
  Polio RdRp inh intensity: 100
  Mtb MenB inh: 8

The list continues.
entry	molecule	MbtI inh	Polio RdRp inh	Polio RdRp inh intensity	Mtb MenB inh
9	COc1cc(NC(=O)C(NS(=O)(=O)c2ccc3c(c2)oc(=O)n3C)C(C)C)cc(OC)c1 (configuration not stated)	-5	100	103	-16
10	S=C(NCc1ccccc1Cl)NC12CC3CC(CC(C3)C1)C2	-11	102	109	-4
11	O=S(=O)(c1ccc(-c2cc(C(F)(F)F)no2)s1)N1CCCCC1	-11	100	102	5
12	CC12CC3CC(C)(C1)CC(C(=O)N1CCCC1)(C3)C2	-8	104	104	-23
13	CC(C)(C)n1ncc2c(=O)n(CC(=O)c3ccc(Cl)cc3)cnc21	12	100	101	-12
14	CC(C)Cn1c(=O)c2sccc2n2c(CCCC(=O)NC3CCCCCC3)nnc12	5	106	94	-17
15	CCN1CCN(c2ccc(NC(=O)c3cccc4c3C(=O)N(Cc3cccnc3)C4)cc2)CC1	-5	99	101	6
16	O=C(CSc1ncc(-c2ccccc2)[nH]1)Nc1cccc(O)c1	2	101	103	32
17	Cc1ccc(C(=O)CSc2nc(C)cc(C)c2C(N)=O)cc1	3	102	101	-1
18	CC1CC(C)CN(C(=O)C(C)N(C)CC(=O)Nc2ccccc2Cl)C1 (configuration not stated)	1	108	104	7
19	CC(C)CN(CC(C)C)Cn1[nH]c(-c2cccs2)nc1=S	90	104	102	5
20	Cc1ccccc1N(Cc1nnc2n1CCCCC2)C(=O)Nc1ccc(F)cc1	4	106	110	-22
21	Cc1cc(C)cc(-n2ncc3c(OCC(=O)N4CCCCC4)ncnc32)c1	20	100	103	-24
22	O=C(COC(=O)C(Cc1ccccc1)N1C(=O)c2ccccc2C1=O)Nc1ccc2[nH]c(=O)[nH]c2c1 (configuration not stated)	-7	103	94	-37
23	COc1ccc(/C=C/C(=O)Nc2ccc(C)cc2C)cc1	-9	103	109	.
24	COc1ccc(C(=O)OCC(N)=O)cc1	-11	101	101	.
25	O=C(NCCN1CCCc2ccccc21)Nc1cccc2c1CCCC2	13	102	100	-16
26	CCC1(CC)C(=O)NC(=NCc2ccc(OC)cc2)N(C)C1=O	-4	102	100	-47
27	S=C(NCc1cccs1)Nc1ccccc1	4	101	103	-23
28	CC1CN(S(=O)(=O)c2ccc(C(=O)N=c3sc4cccc(Cl)c4n3C)cc2)CC(C)O1 (configuration not stated)	-8	105	107	6
29	O=C(COc1ccccc1)Oc1ccccc1	-6	101	100	-31
30	COc1ccc2c(c1OC)C(=O)O[C@H]2[C@H]1c2cc3c(cc2CCN1C)OCO3	-5	100	100	-1
31	COCCN(Cc1ccc(C)c(Br)c1)S(=O)(=O)c1c[nH]c(C(=O)OC)c1	19	102	99	-13
32	CNCC(=O)N1CCOCC1	-9	.	.	-21

2 entries picked at random from the list so far:
entry	molecule	MbtI inh	Polio RdRp inh	Polio RdRp inh intensity	Mtb MenB inh
30	COc1ccc2c(c1OC)C(=O)O[C@H]2[C@H]1c2cc3c(cc2CCN1C)OCO3	-5	100	100	-1
28	CC1CN(S(=O)(=O)c2ccc(C(=O)N=c3sc4cccc(Cl)c4n3C)cc2)CC(C)O1 (configuration not stated)	-8	105	107	6

Next section.
entry	molecule	MbtI inh	Polio RdRp inh	Polio RdRp inh intensity	Mtb MenB inh
33	CCOC(=O)c1cnn(C(=O)c2c(C)nc3ccccn23)c1N	-29	108	112	20
34	c1ccc(-c2nnc(OCC3CCCO3)c3ccccc23)cc1 (configuration not stated)	-15	105	107	-6
35	CC(C)(C)N1CC(OC(=O)CCC(=O)O)C1	-7	95	95	.
36	Cc1ccc(-c2nc(-c3ccccc3)no2)cc1	-6	100	97	2
37	COc1cc(-c2ccc(N=Nc3ccc4c(S(=O)(=O)O)cc(S(=O)(=O)O)c(N)c4c3O)c(OC)c2)ccc1N=Nc1ccc2c(S(=O)(=O)O)cc(S(=O)(=O)O)c(N)c2c1O	18	98	94	-5
38	COc1ccc2c(c1)c(=O)c1ccoc1n2C	119	98	101	13
39	CCc1ccc(C2CC(=O)NC(NC(=O)c3ccccc3)=N2)cc1 (configuration not stated)	-14	101	104	-9
40	Cc1ccc(NC(=S)N2CCN(CCO)CC2)c(C)c1	-9	101	103	5
41	CC1(C)C2CC=C(/C=N/NC(=O)C3CC3)C1C2 (configuration not stated)	-10	103	108	-15
42	Cc1cc(C)cc(C(=O)N(C)CC(=O)Nc2ccc(F)cc2)c1	-5	101	108	-5
43	N#Cc1ccc[nH]c1=S	61	114	119	-60
44	Cc1ccc(Oc2ncccc2NC(=O)CN2CCC(NC(=O)c3ccccc3)CC2)c2c1CCC2	-4	97	97	-2
45	COc1cccc(OC(=O)c2ccc(Cl)cc2Cl)c1	-8	103	97	.
46	O=C(CSc1nc2ccccc2s1)OCc1nnc(-c2ccccc2)o1	12	99	97	-4
47	CCCCSc1ncnc2c1cnn2-c1ccc(Cl)cc1	15	100	99	-10
48	NC(=O)/C=C1\NC(=O)CS1	11	100	105	.
49	COc1ccc(/C=C2\CCC/C(=C\C=N\N(C)C)C2=O)cc1	6	168	169	-74
50	CCCN1C(=O)CC(=O)N=C1SCC(=O)Nc1ccccc1F	-5	103	110	-136
51	CCCC(=O)NCc1ccccc1Cl	-26	100	102	-23
52	CCOC(=O)C1=C(c2ccccc2)NC(=S)NC1c1cccc(OC)c1O (configuration not stated)	.	91	90	-14
53	O=c1c2ccccc2n2c(-c3ccsc3)nnc2n1Cc1ccccc1	13	104	107	-22
54	COc1ccc(C(C(=O)Nc2ccc(C(C)C)cc2)N(Cc2ccco2)C(=O)CC2NC(=O)NC2=O)cc1 (configuration not stated)	0	99	102	-13
55	CCn1cc(C(=O)NCC(C)C)c(=O)c2cc(F)c(N3CCN(C(=O)c4ccco4)CC3)cc21	25	101	101	3
56	Cc1ncc(CC(=O)O)s1	0	102	102	-3
57	COc1ccc(-c2c/c(=N\O)c3cc(F)ccc3o2)cc1	-165	101	106	.
58	COc1cc2c(cc1OC)CN(C(=O)Cc1cccs1)CC2	10	102	103	9
59	COc1cccc(C(=O)N(c2ccccn2)c2ccccn2)c1	-3	101	103	.
60	COc1cccc(C(=O)N2CCN(C3CCC(c4ccccc4)CC3)CC2)c1OC (configuration not stated)	-3	101	99	-3
61	O=C(OCCN1CCCCC1)c1cc2ccccc2o1	16	104	102	2
62	Cc1csc(SCC(=O)Nc2ccc(N3CCCCC3)cc2)n1	7	102	116	0
63	CCn1c2ccccc2c2n[nH]c(=S)nc21	26	103	107	-69
64	Cc1ccc2c(c1)c1c3n2CCNC3CCC1 (configuration not stated)	-66	101	102	-31
65	COc1cc(Cl)c(C)cc1-n1ccnc(NCCCOC(C)C)c1=O	-115	101	103	-21
66	CCN(CC1COc2ccccc2O1)Cn1c(=O)oc2ccccc21 (configuration not stated)	4	101	76	10
67	Cn1c(=O)c2c(nc(CN3CCN(c4ccccc4)CC3)n2Cc2c(F)cccc2Cl)n(C)c1=O	-25	103	106	6
68	Cc1nc2ccccc2c(=O)n1-c1ccc(NS(C)(=O)=O)cc1	16	103	109	-5
69	CC(C(=O)NC1CCCC1)n1c2ccccc2c2cn[nH]c(=O)c21 (configuration not stated)	87	100	105	-3
70	CCn1c(C(=O)N2CCCC2)cc2sc(Cl)cc21	3	104	99	7
71	Cc1ccc(SCC(=O)NC2(C#N)CCCCC2)c(C)c1	2	104	103	2
72	Cc1cc(F)ccc1NCC(=O)Nc1ccc(C#N)cc1	7	102	103	-33
73	O=C(OCC(=O)N1CCC(Cc2ccccc2)CC1)C1CCC1	-11	99	93	.
74	CC(N)CCc1ccc(Cl)cc1 (configuration not stated)	-1	100	104	8
75	CC1=C/C(=N/N=c2\sc3ccccc3n2C)CC(C)(C)C1	8	103	108	5
76	Cc1noc(C)c1S(=O)(=O)N(Cc1ccccn1)Cc1ccccn1	-3	98	96	12
77	CCCCc1nc(NCc2ccccc2)c(C#N)c2c1CCCC2	14	100	102	6
78	O=C(O)Cn1c(SC(F)F)nc2ccccc21	-12	101	107	-21
79	N#Cc1ccccc1OCc1ccccc1	-11	103	103	-9
80	O=c1c2sc3ccccc3c2[nH]c(=S)n1CCCN1CCN(c2ccccc2F)CC1	17	102	107	-19
81	CCn1c(COC(=O)C2CSC3(C)CCC(=O)N23)nc2cc(S(=O)(=O)N(C)C)ccc21 (configuration not stated)	-9	107	113	-27
82	O=C1CCCCC1Sc1nc2ccccc2s1 (configuration not stated)	-4	102	102	-11
83	CCOC(=O)C1(c2cccn2C)Sc2ccccc2NC1=O (configuration not stated)	10	109	105	-10
84	N#Cc1ccc(OCC(=O)N2CCCC2)cc1	-10	101	103	.
85	C[N+]1(CCC(=O)NCc2ccccc2)CCCCC1	14	103	100	6
86	O=C(N[C@@H](Cc1ccccc1)c1nc2ccccc2[nH]1)C1CC(=O)N(c2ccc3c(c2)OCCO3)C1 (some centres not stated)	4	97	108	5
87	Cc1nc(N2CCN(C(=O)c3ccco3)CC2)nc2c1C(=O)CC(c1ccccc1)C2 (configuration not stated)	2	101	103	-5
88	CCCCn1c(N)c(C(=S)NC(=O)C2CC2)c(=O)[nH]c1=O	-2	105	108	-4

More compounds.
entry	molecule	MbtI inh	Polio RdRp inh	Polio RdRp inh intensity	Mtb MenB inh
89	Nc1nnn(Cc2ccccc2)n1	-7	101	105	.
90	OC1C2CCC1C(N1CCCC1)CC2 (configuration not stated)	-3	101	101	-3
91	Clc1cccc(-c2nc(N3CCCC3)nc3c2COc2ccccc2-3)c1	35	102	104	-5
92	CC(C)(Oc1ccc(Cl)cc1)C(=O)OCC(=O)N1CCN(c2ccccc2)CC1	-3	103	104	-18
93	CN1Cc2cc(C(=O)c3ccccc3O)cnc2NC1=O	4	109	126	-32
94	CS(=O)(=NS(=O)(=O)c1cccc2nsnc12)c1ccc(Cl)cc1 (configuration not stated)	0	104	113	-12
95	CCOc1ccc(OCC)c(NS(=O)(=O)c2ccc3[nH]c(=O)c(=O)[nH]c3c2)c1	0	103	103	-19
96	COc1cccc(C(=O)CS(=O)(=O)c2ccc(C)cc2)c1	12	102	98	-34
97	CN(C)c1ccc(/C=C(\C#N)C(=O)OC(C)(C)C)cc1	-10	117	126	-40
98	Cc1csc(N(C(=O)c2ccc(S(=O)(=O)N3CCOCC3)cc2)c2ccccc2)n1	-9	103	100	-4
99	O=C(CSc1ccccc1)N1CCN(c2ccccc2)CC1	7	102	102	-21
100	CCNc1cc(N(C)C)nc(Oc2ccc(OCCOc3ccccc3C)nn2)n1	-4	103	103	-26
101	CCn1c(CC(=O)OC)csc1=Nc1ccc(Cl)cc1	-5	101	98	-43
102	COc1ccc(-c2c(C(F)(F)F)oc3c(CN4CCCC(C)C4)c(O)ccc3c2=O)cc1OC (configuration not stated)	-195	101	96	-24
103	CCN(C(=O)CSc1nnc(Cc2ccccc2)o1)C1=CCCCC1	-4	102	108	-27
104	CSc1ccc(S(=O)(=O)Nc2ccccc2C(=O)N2CCOCC2)cc1	12	101	101	-6
105	CNC(=O)c1cc(S(=O)(=O)N2CCc3ccccc32)ccc1C	-8	101	102	-5
106	COC(=O)c1oc2c(c1C)-c1nc3ccccc3nc1C(C)(C)C2	1	92	118	-29
107	CN(C=O)CP(=O)(O)CN1CCCCC1	-9	102	103	-15
108	CCN(CC)CCC(=O)N1N=C(c2ccc(C)cc2)CC1c1ccc(OC)cc1 (configuration not stated)	6	101	99	1
109	COCCCn1cc(-c2c(-c3cc(=O)oc4cc(OC)ccc34)oc3cc(OC)ccc23)cc(C#N)c1=O	15	111	179	-3
110	CCN(CC)/C(=C\C#N)c1ccc(F)cc1	15	100	99	-11
111	COc1cccc2c1C(=O)c1c(O)c3c(c(O)c1C2=O)C[C@@](O)(C(C)=O)C[C@@H]3OC1CC(N)C(O)C(C)O1 (some centres not stated)	-1	72	185	4
112	CCc1ccccc1NC(=O)c1cc(C)on1	-4	101	102	13

Assay outcomes: PubChem BioAssay, ICCB-Longwood Screening Facility, Harvard Medical School
